# UUG fidelity: modulators of yeast start codon fidelity, primary screen, whole organism, S. cerevisiae, single point, plate reader. S. cerevisiae UUG-firefly luciferase reporter, luminescence/redox ratio. activity score, % at 18.7 µM. AID 602363, 2012. 0.13% of 350,000 active;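 active = replicate mean at a twofold rise or more, about +100% in these data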;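 also: firefly luciferase made from a UUG start codon reports start codon fidelity; reporter light over untreated wells divided by growth signal over untreated wells; some hits fall short of that in this replicate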
# CSC inhib: cancer stem cell viability inhibitors, primary screen, luminescence; 1.1% of 300,000 active; cancer stem cell-like cells viability; inhibition, % at 7.5 µM;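 active = mean at 75% or more and at least half the replicates too; tested in HMLE shEcad cells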;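 also: 0% = median of negative and 100% = median of positive control wells; the first replicate is given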
# Rce1 inh: yeast Rce1p protease inhibitors, primary screen, biochemical, fluorescence, cell-free homogeneous | CAAX prenyl protease 2 (Saccharomyces cerevisiae (strain ATCC 204508 / S288c)), Q03530 | yeast membranes, quenched prenylated peptide cleavage fluorescence | calls only | 0.27% of 290,000 active | AID 2563, 2010;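 active = fall in fluorescence gain of 50% or more versus controls, with final raw signal at or below 3038400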;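 also: plate controls were neutral control wells for no effect and wells lacking membranes for full effect; tested at 10 µM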
# Target sequence (Q03530 whole entry, looked up): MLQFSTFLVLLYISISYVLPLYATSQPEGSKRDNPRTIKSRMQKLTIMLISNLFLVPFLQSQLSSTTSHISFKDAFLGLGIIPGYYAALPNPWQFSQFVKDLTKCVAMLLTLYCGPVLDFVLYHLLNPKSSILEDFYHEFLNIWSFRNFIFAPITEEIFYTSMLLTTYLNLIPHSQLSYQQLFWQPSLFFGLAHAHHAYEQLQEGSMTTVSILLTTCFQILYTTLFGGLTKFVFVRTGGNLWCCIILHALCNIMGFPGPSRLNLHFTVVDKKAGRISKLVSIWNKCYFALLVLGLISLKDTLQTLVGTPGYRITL
# eIF4H inh: human eIF4H binding inhibitors, primary screen, translation initiation inhibitor project, biochemical, uHTS, fluorescence polarization | Eukaryotic translation initiation factor 4H (Homo sapiens), Q15056 | eIF4H fluorescence polarization binding assay | inhibition, % at 35 µM | 0.94% of 290,000 active | AID 2012, 2009;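 active = 50% or more with normal probe brightness, or confirmed in later tests; about a fifth of its hits are not listed in these tables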;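 also: calls also rest on retests at 20 µM and on dose response follow-up; 0% = protein and probe with vehicle and 100% = probe without protein; strong numbers were not always called active; many hits fall short of the cut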
# MT1-MMP act inh: blockers of MT1-MMP proenzyme processing, primary screen, HT1080 RFP-PRO-GFP cells, GFP/RFP fluorescence. Matrix metalloproteinase-14 (Homo sapiens), P50281. GFP/RFP ratio fluorescence, overnight; percent of plate control window, DMSO zero. GFP/RFP ratio change, % at 20 µM. 0.061% of 360,000 active;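 active = GFP/RFP ratio change of at least 30% with cell ATP level not reduced by more than half and red fluorescence within 50% of control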; also: strong numbers were not always called active
#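 Test system: HT1080 RFP-PRO-GFP cells; Benchmarks: DMSO and RFP-L50D-GFP cell wells; Timing: cells overnight before dosing, compound overnight, 37 °C, 5% CO2; Compound: one 20 µM compound dose with 1% DMSO; Read-out: GFP/RFP fluorescence ratio.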
# PABP polyA inh: PABP poly(A) RNA binding inhibitors, primary screen, biochemical, fluorescence polarization, uHTS; Polyadenylate-binding protein 1 (Homo sapiens), P11940; inhibition, % at 35 µM; 1% of 290,000 active; AID 2014, 2009;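 active = 50% or more with normal probe brightness, or confirmed in later tests; about a fifth of its hits are not listed in these tables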;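 also: calls also rest on retests at 20 µM and on dose response follow-up; controls were probe without protein and protein plus probe with vehicle; some compounds called inactive have numbers as strong as hits; many hits fall short of the cut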
# Target sequence (P11940 whole entry, looked up): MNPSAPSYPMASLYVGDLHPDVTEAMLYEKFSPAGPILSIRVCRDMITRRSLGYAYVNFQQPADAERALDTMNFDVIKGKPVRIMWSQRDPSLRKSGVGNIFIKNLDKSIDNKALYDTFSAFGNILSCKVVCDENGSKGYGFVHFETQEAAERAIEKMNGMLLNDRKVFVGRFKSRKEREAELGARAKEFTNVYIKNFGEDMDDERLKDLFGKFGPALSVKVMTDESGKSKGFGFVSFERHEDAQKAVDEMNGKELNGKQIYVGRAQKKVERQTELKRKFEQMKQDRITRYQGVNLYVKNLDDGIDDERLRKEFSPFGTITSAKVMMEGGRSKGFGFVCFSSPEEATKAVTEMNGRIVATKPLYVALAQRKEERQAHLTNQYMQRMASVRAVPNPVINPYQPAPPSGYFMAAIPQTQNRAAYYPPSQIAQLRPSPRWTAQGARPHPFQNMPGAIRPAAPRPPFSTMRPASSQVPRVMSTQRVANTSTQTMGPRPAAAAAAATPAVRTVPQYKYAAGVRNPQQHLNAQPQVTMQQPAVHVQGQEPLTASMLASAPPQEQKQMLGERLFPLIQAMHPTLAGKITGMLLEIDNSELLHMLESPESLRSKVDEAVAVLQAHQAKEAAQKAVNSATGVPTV
# HIV Env fusion: inhibitors of HIV-1 Env-driven cell-cell fusion, primary screen, HeLa-JRFL effector, CEM21 target cells, luciferase; 1.1% of 360,000 active; inhibition, % at 12.3 µM;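 active = mean replicate inhibition score of at least 50 and every replicate individually at or above 50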;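 also: 0% = plate neutral controls and 100% = maraviroc near 300 nM; one replicate is shown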
# MT1-MMP act inh RFP: also measured in MT1-MMP act inh; calls as there; RFP signal change, %; measured here: RFP expression control read;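 0 = vehicle wells; hits needed this value within 50% of zero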
# Active calls of the source: *; i = inactive; · = not tested or not shown; + = active, no number; & = joins results of further samples.
# Each structure is followed by: UUG fidelity | CSC inhib | Rce1 inh | eIF4H inh | MT1-MMP act inh | MT1-MMP act inh RFP | PABP polyA inh | HIV Env fusion
- C/C(=N\NC(=O)c1cc(C)[nH]n1)C(C)(C)C
    · | 9 | i | -6 | -2 | 3 | -4 | -14
- COc1ccc(-c2nc(NC3=NCCCCC3)sc2C)cc1
    · | 7 | i | 6 | 2 | 1 | 5 | 7
- COc1ccc(C(=O)c2ccc(N3CCN(C(=O)c4ccc(F)cc4)CC3)c(F)c2)cc1Br
    -4 | 66 | i | -4 | 5 | -25 | -1 | ·
- Cc1cc(Oc2ccccc2)nc(SCC(=O)Nc2ccc(Cl)c(Cl)c2)n1
    -8 | 27 | i | -1 | -7 | -11 | -9 | -15
- CC1=NNC(=O)C1Cc1ccccc1 (configuration not stated)
    -7 | -10 | i | · | 6 | 2 | · | -10
- CC(NC(=O)Nc1ccccc1)c1ccccc1 (configuration not stated)
    -1 | -1 | i | 1 | 1 | -4 | -10 | 15
- Cc1ncsc1CCC(=O)N1CCCC(Nc2ccc(C(C)C)cc2)C1 (configuration not stated)
    -11 | 34 | i | 2 | 0 | 2 | 2 | -14
- CCOC(=O)Cn1nc(C)c(NC(=O)CCc2ccccc2)c1C
    · | -11 | i | -17 | 0 | 4 | 6 | 17
- CSc1cccc(NS(=O)(=O)c2ccc(F)cc2)c1
    1 | -2 | i | -8 | 2 | 1 | 2 | -46
- Cc1ccc(C(=O)NC2CCCCCC2)cc1S(=O)(=O)N1CCOCC1
    -24 | 9 | i | -12 | 3 | 1 | 8 | -28
- CC(C)CN(CCNC(=O)c1cn(C)c2ccc(S(=O)(=O)N3CCCC3)cc2c1=O)CC(C)C
    -12 | -8 | i | -13 | -3 | 0 | 6 | -7
- O=C(Nc1cccc(NC(=O)c2ccccc2[N+](=O)[O-])c1)c1ccccc1Cl
    -15 | 2 | i | -4 | 7 | 1 | 7 | 7
- CC(C)(C)NC(=O)c1cccc(NC(=O)c2cccc(O)c2)c1
    -32 | 0 | i | -3 | 3 | -1 | 6 | ·
- N#Cc1ccc(Cl)cc1NC(=O)CSc1nc2nc(-c3cccs3)cc(C(F)(F)F)c2c(=O)[nH]1
    · | 14 | i | 16 | · | · | 0 | ·
- Cn1ncc2c(Sc3ccc(Cl)cc3)ncnc21
    0 | 21 | i | -6 | -10 | -2 | 8 | -3
- CCc1noc(C)c1C(=O)N1CCCSC1=Nc1ccccc1C(C)C
    11 | 13 | i | · | 0 | 2 | · | 18
- COc1cc(-c2nnn(CC(=O)NCc3ccccc3)n2)cc(OC)c1OC
    · | 9 | i | -4 | 3 | -5 | 20 | -14
- COC(=O)c1cc(S(=O)(=O)NCc2ccc3c(c2)OCO3)cn1C
    -6 | -16 | i | · | 0 | 0 | · | -7
- COc1ccc(/C=C2\SC(=S)N(CCCC(=O)N3CCN(C)CC3)C2=O)cc1OC
    -22 | · | · | · | 1 | 2 | · | 8
- CN1C[C@@H]2[C@@H]3C(=O)N(Cc4ccccc4)C(=O)[C@@H]3[C@](C)(C1=O)N2C(=O)c1ccc(C(C)(C)C)cc1
    16 | · | · | · | 1 | 5 | · | 19
- COc1ccc(NC(=O)CNC(=O)C2CCCCC2)cc1OC
    -10 | -10 | · | · | 2 | 0 | · | -24
- Cc1cccc(NC(=O)c2c(C)nc3ccccn23)c1
    -14 | · | i | 3 | · | · | -6 | -44
- C=CCNC(=O)N[C@@H](CCSC)C(=O)OC
    -14 | · | i | -4 | 1 | 2 | 1 | ·
- CC(=O)Nc1ccc(NC(=O)C(C)Sc2nnc(-c3ccc4c(c3)OCO4)o2)cc1 (configuration not stated)
    -3 | -12 | · | · | 2 | 6 | · | -17
- CC(=O)Nc1cccc(NC(=O)CSc2nc(=O)n(Cc3ccncc3)c3c2CCC3)c1
    -9 | -1 | i | · | -3 | 3 | · | ·
- COc1ccc(N=Nc2cc(OC)c(N)cc2OC)cc1
    -6 | · | · | · | 27 | 3 | · | 21
- CCc1noc(C)c1C(=O)N1CCN(S(=O)(=O)c2ccc(C)cc2C)CC1
    · | 0 | i | · | -2 | -1 | · | -1
- CCC(=O)Nc1cc(C)c(NC(=O)c2ccccc2OC)cn1
    -10 | -19 | i | 3 | 3 | 5 | 3 | ·
- COc1ccccc1CNS(=O)(=O)c1c(C)nc2scc(C)n2c1=O
    -9 | -9 | i | 1 | 2 | 5 | -10 | -6
- Cc1ccccc1C(=O)N1CCC(C(=O)Nc2ccc(S(=O)(=O)N(C)C(C)C)cc2)CC1
    16 | 2 | i | -3 | -4 | -3 | 8 | 2

# Shown as tab-separated lines: part of the list above.
molecule	UUG fidelity	CSC inhib	Rce1 inh	eIF4H inh	MT1-MMP act inh	MT1-MMP act inh RFP	PABP polyA inh	HIV Env fusion
C/C(=N\NC(=O)c1cc(C)[nH]n1)C(C)(C)C	·	9	i	-6	-2	3	-4	-14
COc1ccc(-c2nc(NC3=NCCCCC3)sc2C)cc1	·	7	i	6	2	1	5	7
COc1ccc(C(=O)c2ccc(N3CCN(C(=O)c4ccc(F)cc4)CC3)c(F)c2)cc1Br	-4	66	i	-4	5	-25	-1	·
Cc1cc(Oc2ccccc2)nc(SCC(=O)Nc2ccc(Cl)c(Cl)c2)n1	-8	27	i	-1	-7	-11	-9	-15
CC1=NNC(=O)C1Cc1ccccc1 (configuration not stated)	-7	-10	i	·	6	2	·	-10
CC(NC(=O)Nc1ccccc1)c1ccccc1 (configuration not stated)	-1	-1	i	1	1	-4	-10	15
Cc1ncsc1CCC(=O)N1CCCC(Nc2ccc(C(C)C)cc2)C1 (configuration not stated)	-11	34	i	2	0	2	2	-14
CCOC(=O)Cn1nc(C)c(NC(=O)CCc2ccccc2)c1C	·	-11	i	-17	0	4	6	17
CSc1cccc(NS(=O)(=O)c2ccc(F)cc2)c1	1	-2	i	-8	2	1	2	-46
Cc1ccc(C(=O)NC2CCCCCC2)cc1S(=O)(=O)N1CCOCC1	-24	9	i	-12	3	1	8	-28
CC(C)CN(CCNC(=O)c1cn(C)c2ccc(S(=O)(=O)N3CCCC3)cc2c1=O)CC(C)C	-12	-8	i	-13	-3	0	6	-7
O=C(Nc1cccc(NC(=O)c2ccccc2[N+](=O)[O-])c1)c1ccccc1Cl	-15	2	i	-4	7	1	7	7
CC(C)(C)NC(=O)c1cccc(NC(=O)c2cccc(O)c2)c1	-32	0	i	-3	3	-1	6	·
N#Cc1ccc(Cl)cc1NC(=O)CSc1nc2nc(-c3cccs3)cc(C(F)(F)F)c2c(=O)[nH]1	·	14	i	16	·	·	0	·
Cn1ncc2c(Sc3ccc(Cl)cc3)ncnc21	0	21	i	-6	-10	-2	8	-3
CCc1noc(C)c1C(=O)N1CCCSC1=Nc1ccccc1C(C)C	11	13	i	·	0	2	·	18
COc1cc(-c2nnn(CC(=O)NCc3ccccc3)n2)cc(OC)c1OC	·	9	i	-4	3	-5	20	-14
COC(=O)c1cc(S(=O)(=O)NCc2ccc3c(c2)OCO3)cn1C	-6	-16	i	·	0	0	·	-7
COc1ccc(/C=C2\SC(=S)N(CCCC(=O)N3CCN(C)CC3)C2=O)cc1OC	-22	·	·	·	1	2	·	8

# (further entries)
# Each structure is followed by: UUG fidelity | CSC inhib | Rce1 inh | eIF4H inh | MT1-MMP act inh | MT1-MMP act inh RFP | PABP polyA inh | HIV Env fusion
- CS(=O)(=O)NN1C(=O)c2ccccc2NC1c1ccccc1F (configuration not stated)
    -11 | -15 | i | -2 | 1 | 7 | 1 | -4
- COc1ccc(NC(=O)COC(=O)CCCOc2ccc(Cl)cc2Cl)cc1
    · | -12 | i | 5 | 5 | 6 | 11 | -13
- COc1ccccc1CC(=O)Nc1ccc(Cl)cc1C(=O)O
    · | 8 | i | -5 | 0 | 5 | -4 | -3
- O=C(O)c1cccc(Nc2ccc([N+](=O)[O-])cn2)c1
    -18 | 0 | i | -7 | -1 | 1 | 4 | -14
- Cc1ccc(NC(=O)Nc2ccon2)cc1
    -14 | · | i | -11 | 2 | 2 | -7 | -6
- CCOc1ccccc1N1CCN(C(=O)c2ccc3nc(N)sc3c2)CC1
    -7 | 4 | · | · | 0 | -2 | · | ·
- C[C@@H]1CN([C@@H](C)CO)S(=O)(=O)c2ccc(Br)cc2O[C@H]1CN(C)C(=O)Nc1ccc2c(c1)OCO2
    1&-6 | · | · | · | 2 | 4 | · | -9
- NS(=O)(=O)c1ccc(CCNC(=O)c2cc(-c3cccs3)nc3ccccc23)cc1
    · | · | i | -4 | 1 | -5 | -4 | -17
- O=C(Nc1ccccc1C(F)(F)F)N1CCCCCC1
    -17 | 2 | i | -9 | 4 | 1 | 4 | -6
- O=c1c2ccccc2nc(-c2ccco2)n1-c1nc2ccccc2s1
    · | 10 | i | 5 | -4 | -3 | -3 | -32
- CCCCNC(=S)N=Nc1c(O)n(Cc2ccccc2)c2ccccc12
    · | 80* | + | 10 | 9 | 3 | 2 | 11
- CC(C)(C)c1ccc(/C=N/OCC(=O)NCc2ccc(F)cc2)cc1
    · | 26 | i | -9 | -2 | 6 | 17 | 5
- O=P(c1ccccc1)(c1ccccc1)C(O)c1ccncc1 (configuration not stated)
    -4 | · | i | -11 | 3 | 2 | 8 | ·
- Cc1ccc(SCC(=O)OC(C)C(=O)NCc2ccccc2)cc1C (configuration not stated)
    · | -6 | i | · | -1 | 1 | · | 22
- CNC(=O)NC(=O)CN1C(=O)NC2(CCOc3ccccc32)C1=O (configuration not stated)
    -5 | -12 | i | -10 | 1 | 4 | -3 | 2
- O=C1CC(SC2=NCCS2)C(=O)N1c1ccc(Br)cc1 (configuration not stated)
    -24 | -21 | i | -11 | 5 | -7 | -10 | -13
- CC1CCC(C(O)(C(=O)c2ccccc2)c2ccccc2)C(=O)C1 (configuration not stated)
    -3 | · | · | · | -2 | -1 | · | 20
- C/C(=N\OCC(=O)Nc1ccc(F)c(F)c1F)c1cc2ccccc2o1
    -14 | -4 | i | -6 | · | · | 0 | -10
- O=c1[nH]n2c(=O)c3c([nH]c2c1N=Nc1cccc(C(F)(F)F)c1)CCCC3
    -32 | -10 | i | -3 | 26 | -2 | 13 | -34
- Cn1c(C(=O)N[C@@H](Cc2ccccc2)C(=O)O)cc2cc(Cl)ccc21
    -12 | -13 | i | 27 | -11 | -1 | 1 | 0
- Cc1ccc(N(CC(=O)NCCc2ccccc2)C(=O)CCC(=O)Nc2cc(C)ccn2)cc1
    10 | -13 | i | -7 | -6 | -2 | -6 | 1
- O=C(NC1CCS(=O)(=O)C1)c1ccc2c(c1)OCO2 (configuration not stated)
    -11 | 7 | i | · | -1 | 0 | · | -387
- O=C(CN1CCN(c2cccc(C(F)(F)F)c2)CC1)N(C1CCCC1)C1CCS(=O)(=O)C1 (configuration not stated)
    -3 | · | · | · | 1 | -3 | · | 9
- CSc1nc2ccccc2n1C(=O)Oc1ccccc1
    -7 | 6 | i | -1 | 12 | 0 | -4 | 17
- Cc1cc(C(=O)NCCCn2ccnc2)cs1
    -14 | -15 | · | -2 | 3 | 6 | -2 | -62
- Cc1cc(C)c(NC(=O)CSc2nc3c(c(=O)n2C)SC(C)C3)c(C)c1 (configuration not stated)
    -20 | -6 | i | 2 | -7 | -22 | 3 | 5
- O=C(COC(=O)/C=C/c1cccc(F)c1)NC1CCCCC1
    -21 | · | · | · | 0 | 4 | · | -20
- COc1ccc(OC)c(NC(=O)c2ccc(CN(c3cc(Cl)ccc3C)S(=O)(=O)c3ccccc3)cc2)c1
    -11 | 4 | i | -8 | 2 | -1 | 1 | ·
- Cc1ccc(C(C(=O)NC2CCCC2)N(C(=O)c2csnn2)c2ccccc2)o1 (configuration not stated)
    -11 | -11 | i | -5 | -2 | 4 | -2 | 10

# Screening results deposited in PubChem by several laboratories.

# Only part of the results is shown; count on the stated rates, not on these rows.
